StopGo FLuc: Primary qHTS Assay for Foot and Mouth Disease Virus Antivirals against NCGC Sytravon and CBC Compound Libraries: Firefly Luciferase Signal; 120,000 tested, 0.23% active; HEK cells with a luciferase reporter of 2A StopGo recoding; AID 1745856, 2022; Potency, µM (titrated, usually from 57.5 µM), without a hit: top-dose signal change, negative = less light; active = well fitted falling curve with a large enough effect; inconclusive = small, poorly fitted or top-dose-only effect; inactive = no such curve, though single readings can be large or run the other way; note: nearly all actives have a fitted effect of over 60% in size; overnight with compound
2A Renilla: Primary qHTS Assay for Foot and Mouth Disease Virus Antivirals against NCGC Sytravon and CBC Compound Libraries: Renilla Luciferase Signal; HEK cells with a luciferase reporter of 2A StopGo recoding; Potency, µM (top dose mostly 57.5 µM), for inactives: at the highest dose signal change, negative = less light; 120,000 tested, 0.32% active; active means well fitted falling curve with a large enough effect; inconclusive means small, poorly fitted or top-dose-only effect; inactive means no such curve, though single readings can be large or run the other way; note: nearly all actives have a fitted effect of over 55% in size; overnight with compound
* marks the source's active call; other numbers are inactive results; ? = inconclusive; & = joins results of further samples; [ ] = remark or other dose. % is set by controls: 0 for no effect and ±100 for the full control effect; potency is the fitted concentration of half-maximal effect. These rows are one share of the data; the hit share may differ from the screen's.

Every second line gives: StopGo FLuc, 2A Renilla
CCCCc1cc(=O)oc2cc(C)cc(OCc3nn[nH]n3)c12
→ -3%, -4%
S=C(NCc1ccccc1)NN=C(Cc1ccccc1)Cc1ccccc1
→ 11%, 64%[activator]
Cc1ccc(C)c2c(=O)cc(CSc3nnc(-c4cccc(F)c4)n3C)[nH]c12
→ ?, ?
N#C/C(=C\c1cccc(F)c1)c1nc(-c2cc3c(ccc4ccccc43)oc2=O)cs1
→ 13%, 8%
CCOC(=O)C(C)Oc1ccc2c(=O)c(-c3ccc(Cl)cc3)coc2c1 (stereo not given)
→ 20%, -26%
CCOC(=O)c1ccc(Oc2nc3c(c(=O)n(C)c(=O)n3C)n2Cc2ccccc2F)cc1
→ -10%, -3%
FC(F)(F)C(F)(F)C(F)(F)C(F)(F)C(F)(F)C(F)(F)C(F)(F)C(F)(F)Br
→ -10%[11.5 µM], -11%
CCCNC(C)(C)COC(=O)c1ccccc1
→ -3%[11.5 µM], -1%
Cc1cc(C)cc(N2C(=O)N(CC(=O)c3ccc(Br)cc3)c3ccccc3S2(=O)=O)c1
→ -9%, 112%[activator]
COc1cccc(NC(=O)CN(C)S(=O)(=O)c2ccc3nc(C)sc3c2)c1
→ 15%, -8%
CCN(CC)CCNC(=O)c1ccc(NC(C)=O)cc1
→ 10%[11.5 µM], 0%
COc1cccc(CNc2cc(C)nc3nc(-c4ccc(C)cc4)nn23)c1
→ 253%[activator], 1%
CCCCOc1ccc(C(=O)OCC(=O)c2ccc(Cl)cc2Cl)cc1
→ 11%, -11%
O=C(/C=C/NCCN(/C=C/C(=O)C(F)(F)F)CCN/C=C/C(=O)C(F)(F)F)C(F)(F)F
→ 1%, 6%
COc1ccc(/C(O)=C2\C(=O)C(=O)NC2c2ccc(Cl)cc2)cc1F (stereo not given)
→ 13%, 7%

The list goes on:
Every second line gives: StopGo FLuc, 2A Renilla
Fc1ccc(Nc2nc(SCc3cccc(Cl)c3)nc3ccccc23)cc1
→ -16%, -7%
Cc1cc(NC(=O)C2CCCN(S(=O)(=O)c3cccc4nsnc34)C2)ccc1Br (stereo not given)
→ -15%, -1%
NC(=O)NCCC(=O)O
→ 0%, 50%[activator]
COC(=O)c1c(C)sc(-c2c(-c3ccc4c(c3)OCCO4)[nH]c3c2c(=O)n(C)c(=O)n3C)c1O
→ -13%, -2%
COc1ccccc1N1CCN(C(=O)c2cc(C)no2)CC1
→ 2%, 2%
CCCCc1nn2c(=O)cc(CN3CCN(c4ncccn4)CC3)nc2s1
→ -3%, -15%
O=C(c1ccccc1F)N1CCN(Cc2c[nH]c3ccccc23)CC1
→ -7%, -9%
COc1cccc(CNC(=O)CNS(=O)(=O)c2ccc3nc(C)sc3c2)c1
→ 25%, -1%
CC(C)c1nnc(NC(=O)NCC(O)c2ccccc2F)s1 (stereo not given)
→ 71%[activator], 0%
CCOC(=O)c1cc(-c2ccc(OC)cc2)nc2ccc(Br)cc12
→ 6%, -7%
Cc1ccc(NC(=O)CN2CCN(S(=O)(=O)c3ccc(C(C)C)cc3)CC2)cc1F
→ -18%, -7%
COc1c(C)cc(Br)cc1C(=O)Nc1sc2c(c1C(N)=O)CCCCC2
→ 49%[activator], 20%
Cc1ccccc1NC(=O)CSc1ncnc2ccccc12
→ 10%, -12%
Cc1ccc(S(=O)(=O)N2CCCCC2)cc1NC(=O)CSc1nnc2ccccn12
→ 15%, 36%[activator]
Cc1cc(C)c(NC(=O)CSc2nc(=O)n(Cc3cccnc3)c3c2CCC3)c(C)c1
→ 1%, 140%[activator]

Remaining list, next part
Every second line gives: StopGo FLuc, 2A Renilla
CCCNC(=O)COC(=O)c1ccc2[nH]c(C)c(C)c2c1
→ 98%[activator], 35%[activator]
CN(C)S(=O)(=O)c1ccc(C(=O)N2CC(=O)Nc3ccc(Br)cc3C2c2ccc(F)cc2)cc1 (stereo not given)
→ -5%, 7%
Cn1c(=O)[nH]c(=O)c2c1nc(NCc1ccccc1Cl)n2CCCc1ccccc1
→ 10%, 0%
Cc1ccc(-c2csc(Nc3cccc(C)c3C)n2)cc1
→ 226%[activator], 15%
Cc1cccc(-n2c(=O)c3ccccc3n(Cc3ccccc3)c2=O)c1
→ -7%, 12%
CCOC(=O)N1CCc2c(sc3c2c(=O)n(Cc2ccccc2)c(=O)n3Cc2cc(C)ccc2C)C1
→ -7%, 7%
CCCCCCCOc1ccc(C=Nc2ccc(CCCC)cc2)c(O)c1
→ 8%, -3%
CCC(CC)NC(=O)CCc1ccc(S(=O)(=O)N2CCCCC2)cc1
→ -17%, 3%
Cc1ccc2c(c1)C(Cc1nc3ccccc3c(=O)n1-c1ccc(Cl)cc1)C(=O)N2 (stereo not given)
→ 3%, -12%
O=C(NCc1cccn1Cc1ccccc1F)Nc1ccc(F)cc1
→ 20%, 183%[activator]
C=CCNC(=O)CN1CCN(Cc2ccc(F)c3cccnc23)CC1
→ 0%, -10%
CCCOc1ccc(CNC(=O)C(NS(=O)(=O)c2cccs2)C(C)C)cc1 (stereo not given)
→ -15%, 23%
S=C(NCc1ccc(Cl)cc1)Nc1ccc(Br)cn1
→ 28%, 17%
Cc1ncc(-c2ccc(S(=O)(=O)Nc3ccc(Cl)cc3)cc2)o1
→ 2%, 157%[activator]
Cc1ccc(C(CNC(=O)c2cc(=O)c3ccc(Br)cc3o2)N2CCCCC2)o1 (stereo not given)
→ 1%, -10%

Going on with the list.
Every second line gives: StopGo FLuc, 2A Renilla
COCCn1c(C)cc(C(=O)COC(=O)Cc2n[nH]c(=O)c3ccccc23)c1C
→ 67%[activator], -4%
N#Cc1ccc(-c2csc(C3CC3)n2)cc1
→ 0%, 3%[1.06 µM]
CC(NC(=O)CSc1nnc(COc2ccccc2Cl)n1C)c1ccc2ccccc2c1 (stereo not given)
→ -15%, 17%
Cc1nc2ccn(Cc3cccnc3)c(=O)c2cc1C(=O)N1CCN(c2ccccc2F)CC1
→ -10%, 2%
CC(CCc1ccccc1)NC(=O)Cn1c(=O)nc(-c2ccccc2)c2cc(Cl)ccc21 (stereo not given)
→ -2%, -1%
OC(COCc1ccccc1F)Cn1nnc(-c2ccc(Br)cc2)n1 (stereo not given)
→ 18%, 11%
O=C(Cn1ncc2c3ccccc3n(Cc3ccc(F)cc3)c2c1=O)NCc1cccs1
→ 0%, -4%
O=[N+]([O-])c1ccc2[nH]c3ccccc3c2c1
→ 20%, 2%
CC(C)NCc1ccc(-c2ccccc2)o1
→ 0%, 326%[activator]
CC(C)C(=O)NCCc1ccc(C(=O)O)cc1
→ 0%, 6%
O=C(Nc1ccc(Cl)c(Cl)c1)c1nn(Cc2ccccc2)c(=O)c2ccccc12
→ 0%, -1%
CCS(=O)(=O)CC(=O)NC(C)c1ccc(OCCC(C)C)cc1 (stereo not given)
→ 0%, ?
CCc1ccc(C2C(C(=O)Nc3ccccc3OC)=C(C)Nc3c(C(=O)Nc4ccc(C)cc4)cnn32)cc1 (stereo not given)
→ -13%, 3%
Cc1ccccc1C(=O)NCCn1c(C)cc2ccccc21
→ 55%[activator], 13%
Cc1cc2c(cc1S(=O)(=O)Nc1ccc(OC(F)(F)F)cc1)OCC(=O)N2
→ -6%, 297%[activator]

A draw from above in order of heavy-atom count, rising.
Every second line gives: StopGo FLuc, 2A Renilla
N#Cc1ccc(-c2csc(C3CC3)n2)cc1
→ 0%, 3%[1.06 µM]
Cc1ccccc1C(=O)NCCn1c(C)cc2ccccc21
→ 55%[activator], 13%
O=C(Nc1ccc(Cl)c(Cl)c1)c1nn(Cc2ccccc2)c(=O)c2ccccc12
→ 0%, -1%
O=C(Cn1ncc2c3ccccc3n(Cc3ccc(F)cc3)c2c1=O)NCc1cccs1
→ 0%, -4%

(continued)
Every second line gives: StopGo FLuc, 2A Renilla
Cc1cc2c(cc1C)NC(CC(=O)Nc1cccc(Cl)c1)C(=O)N2 (stereo not given)
→ 47%[activator], -16%
Cc1cc(=O)oc2cc(OCc3ccc(C(=O)OCC(=O)NC(=O)NC(C)(C)C)cc3)ccc12
→ 73%[activator], 0%
COc1ccc(CN2C/C(=C/c3ccccc3)N3C(=O)C[C@@H](c4ccccc4)N=C23)c(OC)c1
→ -10%, 19%
COc1ccc(Br)cc1Cn1nnc(C(=O)Nc2ccc(C)cc2C)c1N
→ ?, ?
Cc1cn2c(=O)cc(COC(=O)c3ccc(NC(=O)c4ccccc4C)cc3)nc2s1
→ -13%, -8%
Cc1ccc(Cl)cc1N1CCN(C(=O)c2cccn2-c2nnc(N3CCCCC3)s2)CC1
→ -15%, -15%
O=C(NCC(c1cccnc1)N1CCN(c2ccc(F)cc2)CC1)C(=O)Nc1ccccc1 (stereo not given)
→ 16%, -14%
Cc1ccc(-c2c(C(F)(F)F)nn3c(NCc4ccccn4)cc(C)nc23)cc1
→ -3%, -11%
CCCn1nc(C(=O)Nc2ccc(SC(F)F)cc2)c2ccccc2c1=O
→ 23%, 3%
COc1ccc(-c2nn(C)c(=O)c3ccccc23)cc1NC(=O)COc1cccc(C)c1
→ 0%, 19%
CONC(=O)c1sc2nc(C(C)(C)C)nc(C)c2c1C
→ -1%, 0%
Cc1ccc(NC(=O)N2CCN(Cc3nc4ccc(C)cc4o3)CC2)cc1
→ -11%, -22%
CCCNC(=O)CC(c1ccc(F)cc1)N1Cc2ccccc2C1=O (stereo not given)
→ 1%, 34%[activator]
COc1cccc(C(=O)N2c3ccc(C)cc3C(C)(c3ccccc3)CC2(C)C)c1 (stereo not given)
→ -20%, ?
COCCn1c(SCC(=O)NC2CCCCC2)nc2c(c1=O)SCC2
→ 11%, 10%

6 neighbouring entries from above, quoted:
Every second line gives: StopGo FLuc, 2A Renilla
O=C(NCC(c1cccnc1)N1CCN(c2ccc(F)cc2)CC1)C(=O)Nc1ccccc1 (stereo not given)
→ 16%, -14%
Cc1ccc(-c2c(C(F)(F)F)nn3c(NCc4ccccn4)cc(C)nc23)cc1
→ -3%, -11%
CCCn1nc(C(=O)Nc2ccc(SC(F)F)cc2)c2ccccc2c1=O
→ 23%, 3%
COc1ccc(-c2nn(C)c(=O)c3ccccc23)cc1NC(=O)COc1cccc(C)c1
→ 0%, 19%
CONC(=O)c1sc2nc(C(C)(C)C)nc(C)c2c1C
→ -1%, 0%
Cc1ccc(NC(=O)N2CCN(Cc3nc4ccc(C)cc4o3)CC2)cc1
→ -11%, -22%

(next part)
Every second line gives: StopGo FLuc, 2A Renilla
O=C(CCn1c(=O)c2cccn2c2ccc(F)cc21)NCc1ccccc1F
→ -13%, 3%
COc1ccc(S(=O)(=O)Oc2ccc3c(c2)O/C(=C\c2ccccc2C)C3=O)cc1
→ ?, 9%
COc1ccccc1CNC(=O)CCCCn1c(=O)c2ccccc2n(CC(=O)Nc2cc(Cl)ccc2C)c1=O
→ -20%, -10%
O=C(CSc1nc2ncccc2o1)Nc1cccc(C(F)(F)F)c1
→ 45%[activator], -2%
Cc1ccc(S(=O)(=O)c2[nH]c(-c3ccccc3)nc2SCC(N)=O)cc1
→ 7%&2%, 95%&61%[activator]
Cc1ccc(-c2cc(C(=O)N3CCN(C(=O)c4ccco4)CC3)c3ccccc3n2)o1
→ 178%[activator], 24%
Cc1ccc2cc(CSc3nnc(C(F)(F)F)n3C)c(Cl)nc2c1C
→ 9%, 6%
COc1cccc(CNC(=O)CCS(=O)(=O)c2ccc3c(c2)oc(=O)n3C)c1
→ -17%, -11%
COc1ccc(-c2cc3ccc(OC(=O)N(C)C)cc3oc2=O)cc1
→ 321%[activator], 23%
CCOC(=O)C1CCN(CC(=O)Nc2cc(C)c3c(=O)oc4ccccc4c3n2)CC1
→ -12%, -15%
CSc1ccc(CNC(=O)CCn2ccc3cc(S(=O)(=O)N4CCCC4)ccc32)cc1
→ -7%, 75%[activator]
O=S(=O)(Nc1ccc(-c2ccc(N3CCCC3)nn2)cc1)c1cc(F)ccc1F
→ 50%[activator], 107%[activator]

Pulled one by one from above:
Every second line gives: StopGo FLuc, 2A Renilla
CCOC(=O)C1CCN(CC(=O)Nc2cc(C)c3c(=O)oc4ccccc4c3n2)CC1
→ -12%, -15%
CCCCc1cc(=O)oc2cc(C)cc(OCc3nn[nH]n3)c12
→ -3%, -4%

Compound activity as filed in PubChem BioAssay.
